Source: PubChem BioAssay (National Center for Advancing Translational Sciences (NCATS))
Sfp PPTase inh: qHTS Assay for Inhibitors of Bacillus subtilis Sfp phosphopantetheinyl transferase (PPTase); 4'-phosphopantetheinyl transferase ffp (Bacillus subtilis), Q9F4F7; Biochemical Sfp PPTase activity, qHTS; AID 1490, 2009; Potency, µM, for the others: max response, negative = inhibition, usual class: inhibitors; 310,000 tested, 3.5% active; active = well fitted inhibition curve with a large enough effect; inconclusive = small, poorly fitted or top-dose-only effect, or another doubt; inactive = no such curve, though single readings can be large or run the other way;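 note: the enzyme is Sfp with the accession as filed and its product quenches rhodamine fluorescence; potency is the fitted concentration of half-maximal effect; 0% = enzyme reaction without inhibitor and -100% = no enzyme wells; top concentration of the series not given in the record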
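Fluorescence-quenching assay with 15 nM Sfp, 5 uM rhodamine-CoA and 12.5 uM BHQ-2-labelled ybbR peptide in pH 7.6 Hepes/MgCl2 buffer. Enzyme was pre-incubated with compound for 15 min at room temperature. Rate was taken from the 30-min fluorescence change (525/598 nm).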
ClpP mod: qHTS Assay for Activators of ClpP; 340,000 tested, 1.9% active; Potency, µM (top dose mostly 57.5 µM), inactives show top-dose activity change, negative = active; purified B. subtilis ClpP, FRET peptide cleavage, 20 min; active = well fitted falling curve with a large enough effect; inconclusive = small, poorly fitted or top-dose-only effect; inactive = no such curve, though single readings can be large or run the other way; note: potency is the fitted concentration of half-maximal effect; the source files actives as falling curves though it sought activators and does not explain the sign; nearly all actives have a fitted effect of over 65% in size; many hits overshoot -100%
Target sequence (P80244 whole entry, looked up): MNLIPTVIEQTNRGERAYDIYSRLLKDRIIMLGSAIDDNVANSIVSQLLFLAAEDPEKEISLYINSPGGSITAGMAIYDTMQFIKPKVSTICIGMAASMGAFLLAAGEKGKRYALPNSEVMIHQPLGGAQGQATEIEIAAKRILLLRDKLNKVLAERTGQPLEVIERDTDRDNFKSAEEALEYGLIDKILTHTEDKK
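FRET quenching reversal measured ClpP activation: 10 microg/mL B. subtilis ClpP at pH 8 with the FRET-FV decapeptide, read at 430 nm after 320 nm excitation. The 20-min minus 0-min signal was scaled between DMSO/no-enzyme wells and ADEP (5.8 microM final).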
D2 ag: Beta-Arrestin HTS for Positive Allosteric Modulators of the Human D2 Dopamine Receptor: Agonists; D(2) dopamine receptor (Homo sapiens), P14416; DiscoveRx PathHunter D2 beta-arrestin, luminescence, 90 min; 100% = 57 uM dopamine signal; activation, % (test concentration not listed); 360,000 tested, 0.084% active; AID 624465, 2012; in the data active = activation above about 40%; inconclusive = about 15% to 40%; inactive = below about 15%; note: compound concentration not given in the record; the text of the record calls up to 30% inactive
Target sequence (P14416 whole entry, looked up): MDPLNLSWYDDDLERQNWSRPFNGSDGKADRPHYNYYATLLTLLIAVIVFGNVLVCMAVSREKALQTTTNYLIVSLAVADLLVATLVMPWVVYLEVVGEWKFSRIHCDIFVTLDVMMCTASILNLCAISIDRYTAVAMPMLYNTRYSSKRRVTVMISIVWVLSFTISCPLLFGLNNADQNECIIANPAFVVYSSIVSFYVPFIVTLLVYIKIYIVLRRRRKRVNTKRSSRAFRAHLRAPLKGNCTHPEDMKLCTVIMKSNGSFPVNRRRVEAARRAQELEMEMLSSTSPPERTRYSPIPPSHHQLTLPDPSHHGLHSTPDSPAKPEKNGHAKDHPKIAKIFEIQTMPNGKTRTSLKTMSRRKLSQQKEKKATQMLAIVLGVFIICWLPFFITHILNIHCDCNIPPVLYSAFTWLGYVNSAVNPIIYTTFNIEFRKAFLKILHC
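Agonist mode: compounds alone added to overnight-plated D2 PathHunter cells for 90 min at 37 C, with 57 uM final dopamine (EC100) defining full response. Beta-arrestin recruitment detected by chemiluminescent reagent, read after 1 h at ambient temperature.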
PINK1 expr mod: A Quantitative High throughput Screen to Identify Chemical Modulators of PINK1 Expression; Potency, µM (series often up to 76.6 µM), for the others: top-dose activation (PINK1 increase), hits mostly activators; 410,000 tested, 0.2% active; AID 624263, 2012; PINK1 immunofluorescence, high-content cytometry, 24 h; active = well fitted activation curve with a large enough effect; inconclusive = small, poorly fitted or top-dose-only effect; inactive = flat fitted curve, though single readings scatter; cell line not stated here;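 note: potency is the fitted concentration of half-maximal effect; % of control where 0% means no effect; nearly all actives have a fitted effect of over 65% in size; a mitochondrial uncoupler was the plate control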
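Stable cell line, 250 cells/well, 12 h attachment; compounds pinned at 5 concentrations, 24 h; CCCP control. Fixed with nuclear dye, primary antibodies 12 h at 10 degrees C, secondary plus cell stain; laser-scanning cytometer read.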
gsp antag: qHTS for Antagonists of gsp, the Etiologic Mutation Responsible for Fibrous Dysplasia/McCune-Albright Syndrome: qHTS | Potency, µM (doses to about 76.9 µM), inactives show at the highest dose activity change, negative = inhibition, most hits filed as inhibitors | gsp-mutant cells, cAMP HTRF, 30 min; control for the full effect not named in the record | 340,000 tested, 0.4% active | AID 624288, 2012; active = falling curve of any shape with a large fitted effect; inconclusive = falling curve, mostly with a smaller effect; inactive = flat or rising curve; cell line not stated here;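 note: intracellular cAMP measured with PDE inhibitor Ro 20-1724 present during compound exposure; potency is the fitted concentration of half-maximal effect; % is set by controls: 0 for no effect and ±100 for the full control effect; nearly all actives have a fitted effect of over 65% in size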
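HTRF cAMP measurement after 30 min RT detection following 30 min, 37C compound treatment alongside […] (added as 300 uM solution) in G418-selected cells seeded at 2000/well and grown 16–24 h.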
Menin-MLL FL inh: qHTS Assay for Inhibitors Targeting the Menin-MLL Interaction in MLL Related Leukemias: Competition With Fluorescein Labeled MLL-derived Peptide. Fluorescence polarization, fluorescein-MLL peptide displacement from menin. FP activity change, % at 61.4 µM. 290,000 tested, under 10 active; inconclusive = falling polarisation curve, or a change in total fluorescence; inactive = total fluorescence flat and polarisation flat or rising; no compound was filed as active; the % refers to the polarisation; negative = inhibition;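 note: % of control where 0% means no effect; inhibitors lower the polarisation; unlabelled MLL peptide was the positive control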
gsp agonist: qHTS for Agonist of gsp, the Etiologic Mutation Responsible for Fibrous Dysplasia/McCune-Albright Syndrome: qHTS | gsp mutant cells, cAMP HTRF, 30 min; control for the full effect not named in the record | Potency, µM (highest dose often 76.9 µM), for inactives: top-dose activation (cAMP increase), actives largely listed as activators | 340,000 tested, 0.13% active; active = well fitted activation curve with a large enough effect; inconclusive = small, poorly fitted or top-dose-only effect, or another doubt; inactive = no such curve, though single readings can be large or run the other way; cell line not stated here;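 note: phosphodiesterase inhibitor Ro 20-1724 added with compounds to block cAMP breakdown; potency is the fitted concentration of half-maximal effect; nearly all actives have a fitted effect of over 60% in size; about a fifth of the inactives were tested at one dose only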
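Cells in DMEM/10% FBS with G418 were pretreated with compounds in DMSO plus […] (300 uM stock) for 30 min at 37C. cAMP was measured by HTRF (cAMP-d2 plus anti-cAMP antibody-K) after 30 min at room temperature.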
The depositor's hits bear a star; ? = inconclusive; / = not tested or not shown; & = joins results of further samples; [ ] = another dose, or the depositor's remark.

SMILES	Sfp PPTase inh	ClpP mod	D2 ag	PINK1 expr mod	gsp antag	Menin-MLL FL inh	gsp agonist
CSCCC(NC(=O)c1ccco1)C(=O)NC1CCC(C)CC1 (stereo unspecified)	/	0.6%	-1.3	0.4%	15.4%	/	-0.8%
Cc1ccc2cc(C#N)c(N3CCN(C(=O)c4ccccc4)CC3)nc2c1	-14.0%	4.0%	-2.3	1.5%	?	0.0	1.8%
CC(C)(C)c1csc(N/N=C/c2cccnc2)n1	-27.6%	-0.7%	-2.3	2.1%	-5.1%	-2.9	4.7%[15.4 µM]
COc1ccccc1CNC(=O)c1cccc(S(=O)(=O)N2CCN(c3ccc(F)cc3)CC2)c1	/	-3.6%	-0.8	0.9%	-0.8%	/	-4.5%
O=C(NNC(=O)c1ccccc1Br)c1ccc(SCC2CCCO2)c([N+](=O)[O-])c1 (stereo unspecified)	22.0%	-2.1%	-2.6	-1.3%[38.3 µM]	?	-1.1	4.7%
CC(=O)c1cc(CN2C(=O)c3ccccc3C2=O)cs1	-26.0%	1.8%	-2.1	-1.5%	5.6%	2.1	11.7%
COc1ccc(-n2c(CNc3ccc(C)cc3)nnc2SCc2ccccc2)cc1	?	46.4%	-2.3	?	-13.7%	1.2	2.8%
Cc1ccc(-n2c(N)c(C(N)=O)sc2=S)cc1	0.316µM*	-1.5%	-4.4	-1.2%	-13.1%	-23.4	-11.7%
CCNc1nc2nc3ccc(C)cn3c(=O)c2cc1C(=O)NCC1CCCO1 (stereo unspecified)	3.2%	4.5%	0.8	-0.5%	0.5%	2.7	-77.1%[inhibitor]
COc1ccc(C(=O)NCc2nnc(SCC(=O)NCc3ccco3)o2)cc1OC	11.5%	-4.0%	4.9	0.2%	9.0%	/	-8.3%
CC1CCN(C(=O)CCC(=O)Nc2nnc(C(F)(F)F)s2)CC1	0.4%	-1.7%	5.6	5.3%	-13.8%	-6.1	0.1%
CC(=O)c1ccc(Nc2nc(-c3cccnc3)cs2)cc1	0.7%	/	-2.1	7.5%	3.5%	1.5	-8.2%
Cc1ccc(S(=O)(=O)Nc2cc(C(F)(F)F)ccc2N2CCOCC2)cc1	1.0%	1.3%	-2.9	4.6%	-1.2%	3.4	3.2%
COc1ccc(CNCCC(c2ccccc2)c2ccc3c(c2)OCO3)cc1 (stereo unspecified)	35.5µM*	-0.3%&1.7%	-4.7	?	1.4%	1.1	?
CCCCOCCCNC(=O)N[C@@H](CC(C)C)C(=O)O	18.6%	-0.4%	-3.8	/	1.1%	1.5	10.8%
CCOC(=O)CC(=O)CSc1nc(C)cc(C)c1C#N	2.4%	384.0%	-2.1	-0.3%	-1.1%	-3.8	14.8%
Cn1nnnc1SCC(=O)Nc1nn(-c2ccccc2)nc1C(N)=O	-20.8%	/	-0.9	0.7%	15.3%	0.2	32.1%
O=C(Nc1ccc2nc(-c3ccc(Br)o3)[nH]c2c1)c1cccs1	-65.8%	-2.4%	-0.4	-0.1%	?	4.7	-5.7%
COc1cccc(CN2CCCN(S(=O)(=O)c3ccc(Br)cc3)CC2)c1	-5.1%	-3.6%	-2.5	-1.7%	39.8µM*	4.4	3.0%
O=C(OCc1ccccc1)N(CCF)c1cn(Cc2ccccc2)c(=O)n(Cc2ccccc2)c1=O	/	/	2.2	-1.9%	-3.9%	/	-48.4%[inhibitor]
Cc1c(-n2c(SC(C)C(=O)NC(N)=O)nc3ccccc3c2=O)c(=O)n(-c2ccccc2)n1C (stereo unspecified)	17.2%	-1.1%	-3.9	0.6%	5.1%	-5.4	7.9%[15.4 µM]
COc1ccc(/C=C/C(=O)OCC(=O)Nc2cccc(C(C)=O)c2)cc1	-3.3%	-7.2%	-0.7	3.1%	-28.7%	6.7	-6.3%
CCn1c(CSc2nc3ccccc3s2)nnc1SCC(=O)NCC(=O)OC	22.0%	-0.7%	0.1	-4.9%[38.3 µM]	-5.7%	6.0	6.0%
CCN(CC)S(=O)(=O)c1ccc(NN)nc1	12.6µM*	/	2.3	0.0%	/	-1.1	20.7%[15.4 µM]
CCN(CC)C(=O)C1CCCN(Cc2ccc(OC)c(C)c2C)C1 (stereo unspecified)	50.1µM*	1.3%	-3.2	-1.2%	16.8%	-12.8	16.6%
Cc1cc(C)c(S(=O)(=O)c2ccccc2)c(OC(=O)c2c(Cl)cc(Cl)cc2Cl)n1	1.0%	-3.2%	-3.8	-0.8%	-23.7%	0.5	0.0%
CCOC(=O)N1CCC(N2C(=O)c3cc(C(=O)NC4CCCCC4)ccc3C2O)CC1 (stereo unspecified)	19.7%	0.8%	-2.0	1.3%	9.8%	2.1	-16.6%
CNCc1ccccc1OCc1ccccc1F	14.9%	0.3%	-4.0	-0.5%	18.9%	-1.1	2.1%[15.4 µM]
CN(Cc1nc(-c2ccncc2)no1)S(=O)(=O)c1ccc(Br)cc1	-0.7%	-1.2%	0.6	-1.3%	-15.0%	1.7	-37.7%[inhibitor]
CCN(CC)C(=O)Oc1ccc(OC(=O)N(CC)CC)cc1	7.1%	/	2.5	-1.4%	8.8%	2.8	2.6%[15.4 µM]
Cc1ccc(-n2ncc3c(=O)n(CC(=O)NCC4CCCO4)cnc32)cc1 (stereo unspecified)	2.1%	?	-1.2	1.1%	7.3%	-0.2	-32.5%[inhibitor]
C#CCn1c(O)c(N=NC(=O)CNC(=O)c2cccnc2)c2ccccc21	16.8%	0.6%	-5.6	-0.8%	-10.9%	-2.9	9.6%
O=C(Nc1nc(-c2ccc(-c3ccccc3)cc2)cs1)c1cnccn1	5.4%	/	-1.0	4.6%	4.0%	1.3	1.4%
Cc1cccc(CC2CC(=O)N(C3CCCCC3)C2=O)c1 (stereo unspecified)	-22.6%	1.9%	-3.3	3.1%	-10.4%	4.7	-42.7%[inhibitor]
C/C(CC1CC(COCCC(C)C)OC1=O)=N\NC(N)=S (stereo unspecified)	79.4µM*	-0.7%	-0.6	1.2%[38.3 µM]	4.0%	3.1	-2.8%
C/C(Cn1nnc2ccccc21)=N/OC(=O)c1c(F)cccc1F	5.6%	/	1.4	-0.9%	6.1%	-6.9	-16.7%
CCc1nc2c(OCC(=O)C(C)(C)C)cccn2c1N(C)C(=O)c1ccccc1F	/	-1.0%	-2.9	0.8%	/	/	/
CC1CCCC(NC(=O)c2cccc(S(=O)(=O)NCc3ccccc3)c2)C1C (stereo unspecified)	/	1.2%	-4.8	27.3%	-1.5%	/	-9.4%
O=[N+]([O-])c1ccc(NCCNS(=O)(=O)c2ccccc2)cc1	7.4%	/	-3.7	1.4%	-5.6%	-1.8	-20.7%
COc1ccc(S(=O)(=O)Nc2ccc(S(=O)(=O)N3CCCC3)cc2)cc1	6.5%	-0.8%	-0.3	0.0%[38.3 µM]	-6.6%	2.0	-8.4%
Cc1ccc(S(=O)(=O)CC(=O)N2CC(C)OC(C)C2)cc1 (stereo unspecified)	6.9%	2.8%	-5.0	1.6%	10.1%	/	-26.4%
NC(=O)NC(CC(=O)NCCc1ccc(S(N)(=O)=O)cc1)c1ccc(Cl)cc1 (stereo unspecified)	5.6%	-1.0%	-3.1	0.9%	12.7%	0.0	6.8%
CC(c1ccccc1)C1OCC(C[N+]2(C)CCCCC2)O1 (stereo unspecified)	6.1%	/	-2.3	5.6%	10.5%	-5.0	-2.2%[15.4 µM]
O=[N+]([O-])c1ccccc1-c1cc(-c2ccccc2O)n[nH]1	3.9%	-6.2%	-0.2	0.6%	-1.2%	-1.6	-7.0%
O=c1cc(-c2ccccc2)nc2nc(COc3ccccc3)[nH]n12	22.5%	-19.2%	0.1	-2.4%	8.4%	1.8	-9.0%
C=CCN1C(=O)C(CC(=O)Nc2ccccc2F)S/C1=N\c1nccs1 (stereo unspecified)	13.7%	/	0.1	0.8%	-14.4%	3.5	2.0%[15.4 µM]
O=C(NCc1ccccc1)c1n[nH]nc1-c1ccccc1O	11.7%	-5.1%	-0.5	6.9%[38.3 µM]	?	-0.1	0.6%
O=C(COC(=O)c1nc(Cl)ccc1Cl)c1ccc[nH]1	/	/	-2.9	-1.0%	8.2%	/	33.3%[15.4 µM]
COc1ccc(C(=O)N2CCCC(Nc3ccc(F)c(F)c3)C2)c(OC)n1 (stereo unspecified)	14.8%	-1.5%	-1.7	0.3%	-9.6%	/	-94.3%[inhibitor]
Cn1c(=O)c(C(=O)NNC(=O)c2ccccc2Cl)c(O)c2ccccc21	16.3%	/	3.8	4.0%	-17.3%	-2.2	-25.1%
Other records.
SMILES	Sfp PPTase inh	ClpP mod	D2 ag	PINK1 expr mod	gsp antag	Menin-MLL FL inh	gsp agonist
O=C(Nc1nnc(S(=O)(=O)N2CCOCC2)s1)c1ccccc1Br	2.4%	0.5%	2.3	1.1%	?	-0.8	?
COC(=O)C1=C(C)NC(C)=C(C(=O)OC)C1C(=O)OC1CCCCC1=O (stereo unspecified)	16.1%	-25.9%	-4.1&4.5	-1.1%&-0.1%	-0.2%&14.0%	0.9	18.5%&21.6%
CCCC12CN3CC(C)(CN(C1)C3c1ccc3c(c1)OCO3)C2=O (stereo unspecified)	-6.6%	0.4%	0.0	2.1%	1.5%	0.1	3.5%
COC1=C(Nc2ccccc2)C(=O)c2ccccc2C1=O	-13.2%	-9.8%	0.0	8.7%	-6.1%	/	12.3%[15.4 µM]
CCNc1nc(NCC)n2c(SCC(=O)c3ccc(C(C)C)cc3)nnc2n1	16.8%	-1.2%	-3.0	9.1%	4.7%	2.4	-0.7%
Cc1ccsc1C(=O)N(c1nc2ccccc2s1)c1c(C)cccc1C	4.8%	?	-1.4	1.9%	-6.2%	-0.7	?
Cc1ccc(C)c(OCCC(=O)NNC(=O)c2ccncc2)c1	/	/	-2.1	-3.6%	-3.5%	/	-13.8%[15.4 µM]
